VCAM-1 augmentation: enhancers of VCAM-1 display on endothelial cells, imaging, high-content imaging, pooled HUVEC, TNFa stimulus (AID 457); Pooled HUVEC, TNFa-induced VCAM-1 immunofluorescence imaging; hits of this screen are not shown here; calls only; 10,000 tested, 0.2% active;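 active = a top-ranked rise in VCAM-1 staining upheld on image or statistical review; inactive = the rest, including candidates rejected on review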;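 note: compounds tested at 5 µM in the well; cells exposed to compound for 24 hours before fixing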
FPR ligand: ligands of human FPR, also counter-screen for FPRL1 ligands. P21462. FPR-expressing cells, fluorescent ligand binding, flow cytometry. inhibition, %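 (tested at 6.7 µM)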. 24,000 tested, 0.74% active;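 note: 0% = buffer wells and 100% = receptor blocker peptide wells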
Target sequence (P21462 whole entry, looked up): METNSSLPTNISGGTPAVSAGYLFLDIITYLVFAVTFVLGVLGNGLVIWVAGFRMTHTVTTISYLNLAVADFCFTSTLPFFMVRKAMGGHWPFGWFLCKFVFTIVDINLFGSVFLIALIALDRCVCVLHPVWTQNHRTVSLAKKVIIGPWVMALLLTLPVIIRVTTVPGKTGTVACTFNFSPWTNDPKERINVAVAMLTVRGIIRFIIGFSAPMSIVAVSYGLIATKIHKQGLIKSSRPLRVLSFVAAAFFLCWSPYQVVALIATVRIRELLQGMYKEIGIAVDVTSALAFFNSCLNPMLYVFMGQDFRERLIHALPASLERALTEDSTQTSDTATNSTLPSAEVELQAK
VCAM-1 imaging: inhibitors of TNFa-induced VCAM-1 surface display, imaging, high-content imaging, pooled HUVEC, TNFa stimulus (AID 456); inhibition, % at 5 µM; hits with a dose series show IC50 in µM; HUVEC TNFa-induced VCAM-1 surface expression, immunofluorescence imaging; numbers were filed only for top-ranked candidate wells; 10,000 tested, 0.2% active;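 active = top tenth filtered wells with inhibition above zero that passed visual or statistical confirmation; inactive = the rest, including hits rejected on review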;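 note: 0% = stimulated vehicle wells and 100% = unstimulated cells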
VCAM-1 inhibition: inhibitors of TNFa-induced VCAM-1 surface display, cell-based, plate reader, pooled HUVEC, TNFa stimulus (AID 454); 10,000 tested, 0.2% active; HUVEC TNFa-induced VCAM-1 surface immunofluorescence, plate reader; numbers were filed only for top-ranked candidate wells; inhibition, % at 5 µM;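 active = compound among top-ranked inhibitors of TNF-induced VCAM-1 adhesion protein staining, with the hit upheld by image or statistical review; inactive = the rest, including hits rejected on review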;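 note: 0% = TNFa with vehicle and 100% = cells without TNFa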
FPRL1 binder: human FPRL1 ligand, with FPR counter-screen. P25090. FPRL1-expressing cells, fluorescent ligand binding inhibition, flow cytometry. inhibition, %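 (tested at 6.7 µM)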. 24,000 tested, 0.3% active;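 note: 0% = buffer alone and 100% = receptor blocker peptide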
Target sequence (P25090 whole entry, looked up): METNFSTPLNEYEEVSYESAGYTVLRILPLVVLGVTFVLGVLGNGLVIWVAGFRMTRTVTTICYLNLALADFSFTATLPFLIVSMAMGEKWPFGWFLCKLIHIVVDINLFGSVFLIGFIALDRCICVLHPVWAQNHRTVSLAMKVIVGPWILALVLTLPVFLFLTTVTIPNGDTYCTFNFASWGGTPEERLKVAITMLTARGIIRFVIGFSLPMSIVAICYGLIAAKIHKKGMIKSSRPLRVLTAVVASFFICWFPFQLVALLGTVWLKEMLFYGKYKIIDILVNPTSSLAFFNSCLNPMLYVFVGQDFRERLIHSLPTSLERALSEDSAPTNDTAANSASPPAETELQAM
* hit, by the source's call; i = inactive; · = no result given.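 Rule for the calls, unless noted: active = mean above 30%; inconclusive = self-fluorescent; inactive = the rest.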 A portion of the library (hit frequency here may not be typical).

Each structure is followed by: VCAM-1 augmentation, FPR ligand, VCAM-1 imaging, VCAM-1 inhibition, FPRL1 binder
> COc1ccccc1N1CCN(Cc2c(F)cccc2F)CC1
    i, 2, i, i, 5
> Clc1ccc(COC(Cn2ccnc2)c2ccc(Cl)cc2Cl)c(Cl)c1 (configuration not stated)
    i, 2, i, i, -5
> CC(CCc1ccccc1)NC(C)C(O)c1ccc(O)cc1 (configuration not stated)
    i, -8, i, i, 2
> NC(=O)CSP(=O)(c1ccccc1)c1ccccc1
    i, -1, i, i, -2
> OCC12COC3c4ccccc4C(OC1)N32 (configuration not stated)
    i, -6, i, i, -4
> CC1CCN2c3nc4ccccn4c(=O)c3CC3(C(=O)N(C)C(=O)N(C)C3=O)C2C1 (configuration not stated)
    i, 1, i, i, -2
> Cc1ccccc1-c1nc(CS(=O)CC(=O)N2CCC3(CC2)OCCO3)c(C)o1 (configuration not stated)
    ·, 6, ·, ·, 2
> CC(=O)C1C2c3ccccc3OC1(C)N=c1s/c(=C/c3cnn(C)c3)c(=O)n12 (configuration not stated)
    ·, -1, ·, ·, -5
> Cc1ccc(S(=O)(=O)Nc2cc(C(=O)N3CCC4(CC3)OCCO4)ccc2N2CCCCC2)cc1
    ·, 10, ·, ·, 4
> Cc1[nH]c2c(Cl)cccc2c1CCN
    i, 1, i, i, -4
> O=C(c1ccc(CNS(=O)(=O)c2ccccc2)cc1)N1CCC2(CC1)OCCO2
    ·, -2, ·, ·, 3
> Clc1ccc(CSC(Cn2ccnc2)c2ccc(Cl)cc2Cl)cc1 (configuration not stated)
    i, -12, i, i, -5
> O=C(c1cccc(N2CCCC2=O)c1)N1CCC2(CC1)OCCO2
    ·, -12, ·, ·, -12
> C=CCOC(=O)COc1cc(C)cc2oc(=O)c3c(c12)CCC3
    i, -15, i, i, -2
> C[C@H]1OC[C@@H](C[N+](C)(C)C)O1
    i, 4, i, i, -4
> CCOC(=O)C(O)(c1ccc(N(CC)C(=O)OC)cc1)C(F)(F)F (configuration not stated)
    i, 10, i, i, 0
> CCNc1ccc(P(=S)(N(C)C)N(C)C)cc1
    i, 0, i, i, -5
> O=S1(=O)CC2(N3CCOCC3)CCCCCCC21 (configuration not stated)
    ·, 5, ·, ·, 4
> CC1(C)CN=C(Nc2ccccc2C(F)(F)F)S1
    ·, -5, ·, ·, -4
> Cc1ccc(S(=O)(=O)N2CCC(C(=O)N3CCC4(CC3)OCCO4)CC2)cc1
    ·, -3, ·, ·, -2
> Cc1[nH]c2c(C(F)(F)F)cccc2c1CCN
    ·, -5, ·, ·, -3
> O=C(Cn1c2c(c(-c3ccccc3Cl)cc1=O)CCC2)N1CCC2(CC1)OCCO2
    i, -1, i, i, 2
> O=C1C2CCCN2C(c2cccnc2)N1c1nccs1 (configuration not stated)
    ·, -5, ·, ·, -7
> CCOC(=O)C1=C(C)OC(N)=C(C(=O)OC)C12C(=O)Nc1ccc(Br)cc12 (configuration not stated)
    ·, -3, ·, ·, -2
> CC(C)OCCCNC(=O)c1c(N)n(CC2CCCO2)c2nc3ccccc3nc12 (configuration not stated)
    i, 4, i, i, -3
> CC1(C)CN=C(Nc2ccc(F)c(F)c2)S1
    ·, -19, ·, ·, -14
> CCOc1cc(C2NCc3ccccc3-n3cccc32)ccc1O (configuration not stated)
    ·, -6, ·, ·, -1
> O=C(c1ccc2nc3ccc(Cl)cc3c(=O)n2c1)N1CCC2(CC1)OCCO2
    i, -7, i, i, -6
> Cc1cc(C)n2nc(SCC(=O)N3CCC4(CC3)OCCO4)nc2n1
    ·, -1, ·, ·, -4
> NCCc1c[nH]c2ccc(F)cc12
    ·, -8, ·, ·, 4
> CCN(CC)CCN=Cc1c(O)n(CCC2=CCCCC2)c(=O)[nH]c1=O
    i, -9, i, i, -1
> CNCC(O)c1ccc(O)cc1 (configuration not stated)
    i, 3, i, i, -2
> COC(=O)c1ccccc1-n1c(C)nc2ccccc2c1=O
    i, -20, i, i, -3
> Cc1cc(C)n2nc(C)[n+](C)c2n1
    ·, -2, ·, ·, 8
> CC(C)[C@H]1C(=O)N2CCC[C@H]2[C@]2(O)O[C@](NC(=O)[C@@H]3C=C4c5cccc6[nH]cc(c56)C[C@H]4N(C)C3)(C(C)C)C(=O)N12
    i, -5, i, i, -6
> CC(=O)c1ccccc1NC(=O)C1C2CCC(O2)C1C(=O)O (configuration not stated)
    ·, -16, ·, ·, -3
> Cc1ccc(CS(=O)(=O)CCC(=O)N2CCC3(CC2)OCCO3)cc1
    i, 1, i, i, 1
> O=C1C2CCCN2C(c2ccc(Cl)c(Cl)c2)N1c1ccccn1 (configuration not stated)
    i, -4, i, i, 0
> C[C@H]1CCCC(=O)CCCCCc2cc(O)cc(O)c2C(=O)O1
    i, 0, i, i, 0
> CCn1c(C(=O)N2CCC(C(=O)N3CCC4(CC3)OCCO4)CC2)cc2sccc21
    ·, -5, ·, ·, 1
> CCOc1c(P(=S)(N(C)C)N(C)C)c(C)nn1-c1ccccc1
    i, -4, i, i, 3
> O=c1[nH]c2ccccc2n1CCCN1CCC(n2c(=O)[nH]c3cc(Cl)ccc32)CC1
    i, 7, i, i, -6
> O=C(NCC(c1cccnc1)N1CCOCC1)Oc1ccccc1 (configuration not stated)
    ·, -11, ·, ·, -8
> C(#CCN1CCOCC1)COCC#Cc1ccccc1
    i, 1, i, i, 2
> O=C(O)Cn1cc(C(=O)c2ccccc2)c2ccccc21
    i, 6, i, i, 3
> CCC1(CC)C(=O)NC(=NCCc2c[nH]c3ccccc23)NC1=O
    ·, 0, ·, ·, -2
> O=C(c1cccs1)C1CN2CCC1CC2 (configuration not stated)
    i, -1, i, i, 6
> CCN1c2nc3c(C)cccn3c(=O)c2CC2(C(=O)N(C)C(=O)N(C)C2=O)C1C (configuration not stated)
    i, 4, i, i, 5
> CC[N+]1(C)CCCC(OC(=O)C(O)(c2ccccc2)c2ccccc2)C1 (configuration not stated)
    i, 0, i, i, 1
> CC(=O)Nc1ccc(OC(=O)c2ccccc2N)cc1
    i, 2, i, i, -1
> CCOc1ccc(-c2cc(C(=O)N3CCC4(CC3)OCCO4)c3ccccc3n2)cc1
    ·, 7, ·, ·, 5
> Cc1c(C(=O)N2CCC3(CC2)OCCO3)oc2ccc(S(=O)(=O)N3CCOCC3)cc12
    ·, 0, ·, ·, 0
> COc1ccc(-c2nc(CS(=O)CC(=O)N3CCC4(CC3)OCCO4)c(C)o2)cc1 (configuration not stated)
    ·, 0, ·, ·, 2
> CC(N)C(=O)c1ccco1 (configuration not stated)
    ·, 5, ·, ·, 1
> CC(=NCCCO)c1c(O)n(Cc2ccccc2)c(=O)[nH]c1=O
    i, 0, i, i, 4
> CC(C)(C)C(O)C(Oc1ccc(Cl)cc1)n1cncn1 (configuration not stated)
    i, 0, i, i, -2
> Cc1cccc(-n2c(-c3ccco3)nc3ccccc3c2=O)n1
    i, -5, i, i, 1
> CCOC(=O)N(c1ccccc1)P1(=S)OCC(C)O1 (configuration not stated)
    ·, 4, ·, ·, -14
> CCOC(=O)c1[nH]c(C)c(C(=O)N2CCC3(CC2)OCCO3)c1C
    ·, 6, ·, ·, 4
> O=C(c1cc(S(=O)(=O)N2CCOCC2)ccc1F)N1CCC2(CC1)OCCO2
    ·, -5, ·, ·, -4

Additional compounds
Each structure is followed by: VCAM-1 augmentation, FPR ligand, VCAM-1 imaging, VCAM-1 inhibition, FPRL1 binder
> Cc1oc(-c2ccccc2F)nc1CS(=O)CC(=O)N1CCC2(CC1)OCCO2 (configuration not stated)
    ·, -9, ·, ·, -3
> Cc1ccc2c(c1)N(CCC(=O)N1CCC3(CC1)OCCO3)C(=O)CO2
    ·, 5, ·, ·, -1
> COc1ccc(C(=O)N2CCCC2=O)cc1
    i, -2, i, i, -2
> CCCCNC(=O)c1c(N)n(CCCOC)c2nc3ccccc3nc12
    i, -7, i, i, 8
> CCN(CC)CCOC(=O)c1cc2cc(COC)ccc2o1
    ·, -7, ·, ·, -2
> Cc1ccc(-c2nc(CS(=O)CC(=O)N3CCC4(CC3)OCCO4)c(C)o2)cc1 (configuration not stated)
    i, 2, i, i, -2
> COc1cc(/C=N/n2cnnc2)ccc1OC(=O)N(C)C
    i, -5, i, i, -2
> CCCCCCC(N)CC(=O)O (configuration not stated)
    i, -5, i, i, -7
> COc1ccccc1N1CCN(Cc2cccc(OC)c2O)CC1
    i, 4, i, i, -3
> O=P(C(c1ccc2c(c1)OCO2)N1CCOCC1)(N1CCOCC1)N1CCOCC1 (configuration not stated)
    ·, -30, ·, ·, -30
> C[C@]12CCC(=O)C=C1CC[C@@H]1[C@@H]2CC[C@]2(C)C(=O)CC[C@@H]12
    i, 4, i, i, -1
> Cc1ccc(CN2CCN(CC(=O)N3CCC4(CC3)OCCO4)C2=O)cc1
    ·, -13, ·, ·, -8
> O=C(c1ccccc1)c1cn(CC(=O)N2CCCC2)c2ccccc12
    ·, -2, ·, ·, -1
> C=CCn1c(O)c(C(C)=NCc2cccnc2)c(=O)[nH]c1=O
    i, -2, i, i, 0
> COc1ccc2nc(NC(=O)CCc3nc(C4=CCN(C)CC4)no3)sc2c1
    ·, -2, ·, ·, -2

3 compounds drawn at random from those above:
Each structure is followed by: VCAM-1 augmentation, FPR ligand, VCAM-1 imaging, VCAM-1 inhibition, FPRL1 binder
> COc1ccc(C(=O)N2CCCC2=O)cc1
    i, -2, i, i, -2
> COc1cc(/C=N/n2cnnc2)ccc1OC(=O)N(C)C
    i, -5, i, i, -2
> O=P(C(c1ccc2c(c1)OCO2)N1CCOCC1)(N1CCOCC1)N1CCOCC1 (configuration not stated)
    ·, -30, ·, ·, -30

Single records (already shown). Screens in order: VCAM-1 augmentation	FPR ligand	VCAM-1 imaging	VCAM-1 inhibition	FPRL1 binder
`O=C(c1ccc(CNS(=O)(=O)c2ccccc2)cc1)N1CCC2(CC1)OCCO2` is listed as ·	-2	·	·	3
`C[C@H]1CCCC(=O)CCCCCc2cc(O)cc(O)c2C(=O)O1` is listed as i	0	i	i	0
`O=C(c1ccccc1)c1cn(CC(=O)N2CCCC2)c2ccccc12` is listed as ·	-2	·	·	-1

The results go on.
Each structure is followed by: VCAM-1 augmentation, FPR ligand, VCAM-1 imaging, VCAM-1 inhibition, FPRL1 binder
> CC1(C)Cc2c(sc3c2C(=O)NC(c2cccnc2)N3)CO1 (configuration not stated)
    i, -3, i, i, 1
> O=C(CN1C(=O)CN=C(c2ccccc2)c2ccccc21)NCc1ccco1
    i, -1, i, i, -5
> COc1cccc(-n2nc(C(=O)N3CCC4(CC3)OCCO4)c3ccccc3c2=O)c1
    ·, -5, ·, ·, 5
> CCN1CCN(c2ncnc3ccc(Br)cc23)CC1
    i, -7, i, i, 0
> C=CCn1c(O)c(C(C)=NCCCO)c(=O)[nH]c1=O
    i, -6, i, i, 1
> COc1ccc(S(=O)(=O)NC(CC(=O)N2CCC3(CC2)OCCO3)c2ccco2)cc1 (configuration not stated)
    i, 3, i, i, 5
> O=C(c1csc2c1CCCCC2)N1CCC2(CC1)OCCO2
    ·, 7, ·, ·, 1
> O=C(CCCn1c(=O)[nH]c2cc(Cl)ccc2c1=O)N1CCC2(CC1)OCCO2
    ·, 4, ·, ·, 3
> O=C(Cn1ncc2c3ccccc3n(Cc3cccc(Cl)c3)c2c1=O)N1CCC2(CC1)OCCO2
    ·, 9, ·, ·, -16
> CN(C)[C@@H]1C(=O)C(C(N)=O)=C(O)[C@@]2(O)C(=O)C3=C(O)c4c(O)ccc(Cl)c4[C@@](C)(O)C3C[C@@H]12 (some centres not stated)
    i, 1, i, i, -3
> CC(C)N1CC=C(c2c[nH]c3ccccc23)CC1
    ·, 18, ·, ·, 13
> CCOC(=O)C1=C(N)OC(C)=C(C(=O)OCCOC)C12C(=O)Nc1ccccc12 (configuration not stated)
    i, -4, i, i, 1
> O=C(C1CCCN(S(=O)(=O)c2cccc3nsnc23)C1)N1CCC2(CC1)OCCO2 (configuration not stated)
    i, 0, i, i, -2
> C=CCn1c(O)c(C(C)=Nc2ccc(N(CC)CC)cc2)c(=O)[nH]c1=O
    i, -2, i, i, -2
> O=c1c2ccccc2[se]n1-c1ccccc1
    i, -2, i, i, 5
> O=C(NC1(C(F)(F)F)Oc2ccc(Cl)cc2O1)N1CCC2(CC1)OCCO2 (configuration not stated)
    i, -4, i, i, 7
> O=C1CC(C(=O)N2CCC3(CC2)OCCO3)CN1CCc1ccccc1 (configuration not stated)
    ·, -4, ·, ·, 4
> O=C(C1c2ccccc2C(=O)N2CCc3ccccc3C12)N1CCC2(CC1)OCCO2 (configuration not stated)
    ·, 1, ·, ·, -2

Screens as filed in PubChem BioAssay.
